NPYLR7 agonist: mosquito NPYLR7 agonism; HEK293T NPYLR7/Galpha15, GCaMP6s calcium fluorescence; activation, % at 10 µM; 270,000 tested, 0.15% active; in the data active = activation above about 40%;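 also: 0% = vehicle and 100% = reference agonist at the receptor; some compounds past the cut are filed as inactive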
NPYLR7 agonist max-min: second read-out of NPYLR7 agonist, no call of its own (marks repeat the call); activation, %; measured here: Max-Min RFU normalised activation; some inactives read as strong as hits;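 span of the calcium signal over five minutes; 0% = vehicle and 100% = native peptide agonist; compound fluorescence can raise it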
Starred values were filed as active, the others as inactive; & = joins results of further samples.

The line under a structure holds: NPYLR7 agonist, NPYLR7 agonist max-min
- CCOC(=O)C1(C/C=C/c2ccccc2)CCCN(C(=O)CCc2c(C)noc2C)C1 (stereo not given)
 : 5, 4
- Cc1ccc(S(=O)(=O)N(Cc2csc(COc3ccc(Cl)cc3)n2)C(C)C)cc1
 : -6, 3
- CS(=O)(=O)NCCCn1nc(-c2ccc(F)cc2)ccc1=O
 : -1, -2
- COC1C=C2CCC3C(CCC4(C)C3CCC4(O)CSc3nccn3C)C2(C)CC1 (stereo not given)
 : -1, -2
- CCn1c(C2CCCN(CC(C)(C)CN3CCOCC3)C2)nn(C)c1=O (stereo not given)
 : 6, 3
- CN(C)c1ccc(C(=C2C=CC(=[N+](C)C)C=C2)c2ccc(N(C)C)cc2)cc1
 : -17&-15, -20&-19
- CCOC(=O)N1CCN(CC(=O)N2N=C(c3cccc(OC)c3)CC2c2ccc(Cl)cc2)CC1 (stereo not given)
 : 19, 13
- CCC(C)N(Cc1ccccc1)C(=O)CCc1c(C)nc2c(c(OC)nn2C)c1C (stereo not given)
 : 15, 22
- O=C(OC(C(=O)c1c[nH]c2ccccc12)c1ccccc1)c1cccc([N+](=O)[O-])c1 (stereo not given)
 : -5, -9
- CC(=O)c1cccc(Nc2nc(-c3cc4ccccc4oc3=O)cs2)c1
 : -5, -15
- C=C(Br)CN(CC1CCCO1)CC1CCCO1 (stereo not given)
 : 4, 2
- OCC1(Cc2ccc(F)cc2F)CCCN(c2ncnc3[nH]ccc23)C1 (stereo not given)
 : -3, -3
- CC(=O)Nc1nc(C(=O)N2CCCC3(CCCCCC3)C2)cs1
 : 5, 3
- O=c1[nH]cnc2c1[nH]c1ccc(Br)cc12
 : 9, 2
- O=c1c[n+]([O-])c2ccccc2n1OCc1ccc([N+](=O)[O-])cc1
 : -10, -17
- COc1ccc(CN2CCN(c3cccc(C(F)(F)F)c3)C(=O)C2C)cc1 (stereo not given)
 : -1, 0
- Cc1ccc(CN2CCN(Cc3ccc4nsnc4c3)CC2CCO)o1 (stereo not given)
 : 3, 2
- CN(C)c1cccc(Nc2cc(-c3ccccc3Oc3ccccc3)ncn2)c1
 : -9, -8
- CN1CCCn2nc(C(=O)NCCc3csc(-c4cnccn4)n3)cc2C1
 : -6, -9
- C=CC(C)(O)CN(Cc1c(C)nn(-c2ccccc2)c1Oc1ccccc1OC)CC1CCCO1 (stereo not given)
 : 6, 8
- O=C(C=Cc1ccco1)OCC(=O)C12CC3CC(CC(C3)C1)C2
 : -2, -3
- CC(c1cccc(-c2cnccn2)c1)N(C)C (stereo not given)
 : -2, -3
- CCCCC(NC(=O)CCc1ccc(-c2ccc(F)cc2)n1-c1ccc(NC(C)=O)cc1)C(=O)OC (stereo not given)
 : 0, -3
- COc1ccc(Nc2ncccc2C(=O)N2CCC(C)CC(C)(C)C2)cc1 (stereo not given)
 : -10, -15
- CCc1nc2ccc(C(=O)N3CCN(C(=O)c4ccco4)CC3)cn2c1N(CC)CCOC
 : 13, 10
- COc1ccc(NC(=O)N(CC(=O)N(Cc2ccc(F)cc2)Cc2cccs2)C(C)C)cc1
 : 14, 20
- COc1nn(C)cc1C(=O)Nc1ccccc1
 : 1, 2
- O=C(c1ccc(Cl)nc1)N1CCN(Cc2cc(=O)c(OCc3ccc(C(F)(F)F)cc3)co2)CC1
 : 0, 1
- CCCCCOc1ccc(C(=O)N2CCCC2c2ccncc2)cc1OCCCCC (stereo not given)
 : 1, -4
- Cc1ccc(C)c(C2=NN(C(=O)CN3CCN(Cc4ccccc4)CC3)C(c3ccccc3Cl)C2)c1 (stereo not given)
 : 23, 16

Full records as entered above. Values in the order: NPYLR7 agonist, NPYLR7 agonist max-min
`COc1nn(C)cc1C(=O)Nc1ccccc1` reads 1, 2
`CC(c1cccc(-c2cnccn2)c1)N(C)C` (stereo not given) reads -2, -3
`COc1ccc(Nc2ncccc2C(=O)N2CCC(C)CC(C)(C)C2)cc1` (stereo not given) reads -10, -15
`CCCCC(NC(=O)CCc1ccc(-c2ccc(F)cc2)n1-c1ccc(NC(C)=O)cc1)C(=O)OC` (stereo not given) reads 0, -3
`O=C(c1ccc(Cl)nc1)N1CCN(Cc2cc(=O)c(OCc3ccc(C(F)(F)F)cc3)co2)CC1` reads 0, 1

Next compounds:
The line under a structure holds: NPYLR7 agonist, NPYLR7 agonist max-min
- CCC(C)N(Cc1cccc(OS(=O)(=O)c2ccc(F)cc2)c1)C(=O)c1cccc(OC)c1 (stereo not given)
 : 4, 11
- O=C(Nc1nc(-c2ccc3ccccc3c2)cs1)c1ccc([N+](=O)[O-])cc1[N+](=O)[O-]
 : -2, -6
- O=C(/C=C\c1ccc2c(c1)OCO2)Nc1c2c(nn1-c1ccc(Cl)cc1)CS(=O)(=O)C2
 : 0, -2
- CCCCc1ccc(C(=O)Nc2cccc(C3SCC(=O)N3c3ccccc3F)c2)cc1 (stereo not given)
 : 15, 18
- CCC(C(=O)N1CCCC(C(=O)O)C1)c1ccccc1 (stereo not given)
 : -2, -2
- Cc1ccc(-c2nc3ccc(C)cn3c2NC(=O)COCc2ccccc2)cc1
 : -3, -2
- CN(c1ncccc1CNC(=O)c1ccc2nc[nH]c2c1)C1CCCCC1
 : 2, -2
- O=C(Nc1nncs1)c1cc2c(s1)CCCC2
 : -16, -21
- C=C(C)C(O)(C(=C)C)c1ccc(CN(CCCOC)Cc2ccc(C)cc2)o1
 : -1, 8
- CCOC(=O)C(C)Sc1nc2ccc(OC)cc2cc1C#N (stereo not given)
 : 0, -1
- CCCn1c(=O)c2c(nc3n2CC(C)CN3c2ccc(F)cc2)n(C)c1=O (stereo not given)
 : 1, -3
- Cc1nc(-c2ccc(Cl)cc2)nc(N2CCN(C(=O)NC34CC5CC(CC(C5)C3)C4)CC2)c1Cc1ccccc1
 : -5, -3
- Cc1nc2n(C)c3ccccc3n2c1C(=O)c1cccs1
 : 2, 1
- Cc1nn(C)c(C)c1CCC(=O)N1CCCC(O)(CN(C)C)CC1 (stereo not given)
 : 10, 3
- O=C(NC1C2COCC1CN(CC1CCOCC1)C2)c1ccc2ncccc2n1 (stereo not given)
 : 22, 12
- COc1cccc(C=C2N=C(c3cccc(C)c3)OC2=O)c1OC(F)F
 : 11, 15
- CCOC(=O)c1nc2ccccc2nc1N1CCN(C(=O)c2ccc(C)c(C)c2)CC1
 : 6, 3
- CN1CCN(c2ccc(NC(=O)c3c(F)cccc3Cl)cc2)CC1
 : 2, 0
- CO[C@@H]1[C@@H](OC(N)=O)[C@@H](O)[C@H](Oc2ccc3c(O)c(NC(=O)c4ccc(O)c(CC=C(C)C)c4)c(=O)oc3c2C)OC1(C)C
 : -5&0, -11&-4
- CCn1ccsc1=N
 : 0, -1
- COc1cc(Cn2c(C(=O)O)cc3oc(C)cc32)cc(OC)c1
 : 18, 7
- CCCCCCCC(=O)N(CCCOC)CC(=O)N1CCc2sccc2C1c1ccc(OC)cc1 (stereo not given)
 : -6, 3
- Cn1cc(S(=O)(=O)N2CCOCC2)cc1C(=O)O
 : 6, 10
- CCCOCCCNC(=O)c1cc(N2CCOCC2)nc2ccccc12
 : -16, -18
- CN1CCN(S(=O)(=O)c2ccc(Br)c3ccccc23)CC1
 : 3, 3
- Cc1ccc(-n2nc(C)c(CCC(=O)N(C)CCNC(=O)C(F)(F)F)c2C)c(C)c1
 : 8, 8
- COc1ccc(N2CC(C(=O)NCc3cc(-c4ccc(F)cc4F)on3)CC2=O)cc1 (stereo not given)
 : 0, -2
- CCCCCc1ccc(C(=O)N2CCc3c([nH]c4ccc(OC)cc34)C2c2ccccc2OC)cc1 (stereo not given)
 : 4, 0
- Cc1cc(N2CCCN(Cc3ccc(O)c(C(=O)O)c3)CC2)ccn1
 : -13, -16
- CCCCOC(=O)C1=C(C)NC2=C(C(=O)CCC2)C1c1cc(OC)ccc1OC (stereo not given)
 : -6, -13
- CC1(C)CC(=O)c2sc(NC(=O)c3cnn4c(C(F)(F)F)cc(-c5ccccc5)nc34)nc2C1
 : -14, -25
- CCn1c(=S)[nH]c2c(c1=O)C1(CCCCC1)Cc1ccccc1-2
 : -4, 4
- COc1ccc(CCNC(=O)C(NC(=O)OCc2ccccc2)SC(C)C)cc1OC (stereo not given)
 : 0, -3
- N#CC(NC(=O)CCc1ccc(Cl)s1)c1ccsc1 (stereo not given)
 : 5, 0
- NC(=O)c1ccc(C2CCCN2C(=O)CCN2Cc3ccccc3C2)s1 (stereo not given)
 : 0, -5
- COc1ccc(CCOc2nc(-c3ccc(OC)cc3)n(-c3ccc(NC(=O)Nc4cccc(Cl)c4)cc3)n2)cc1
 : 12, 12
- O=C1OC(C(=O)N2CCN(C(=O)c3cccs3)CC2)Cc2ccccc21 (stereo not given)
 : 10, 6
- O=C(CN1CCC(n2nccc2NC(=O)C2CC2)CC1)NCC1CCCO1 (stereo not given)
 : 11, 7
- CCOC(=O)C(=O)NCC1Cc2cc(OC)ccc2O1 (stereo not given)
 : 20, 5
- O=C(Cn1nc(-c2ccc(F)cc2)c2sc(N3CCCC3)nc2c1=O)NCc1ccc(F)cc1
 : -5, -7

Sorted by formula weight (largest number first): 4 of the compounds above.
The line under a structure holds: NPYLR7 agonist, NPYLR7 agonist max-min
- CCCCCCCC(=O)N(CCCOC)CC(=O)N1CCc2sccc2C1c1ccc(OC)cc1 (stereo not given)
 : -6, 3
- CCc1nc2ccc(C(=O)N3CCN(C(=O)c4ccco4)CC3)cn2c1N(CC)CCOC
 : 13, 10
- COc1ccc(CCNC(=O)C(NC(=O)OCc2ccccc2)SC(C)C)cc1OC (stereo not given)
 : 0, -3
- COC1C=C2CCC3C(CCC4(C)C3CCC4(O)CSc3nccn3C)C2(C)CC1 (stereo not given)
 : -1, -2

Next section
The line under a structure holds: NPYLR7 agonist, NPYLR7 agonist max-min
- CN(C)CCSc1ccc(NC(=O)c2cccc(C(N)=O)c2)cc1
 : -5, -7
- CN1CCN(CC(O)c2ccc(F)cc2F)Cc2ccccc21 (stereo not given)
 : 11, 7
- CCCOC(=O)N1CC[C@@H](c2ccc3c(c2)OCO3)[C@H](O)C1
 : -5, -5
- CC(C)(C)NC(=O)N1CCOC(Cc2ccc(F)cc2)C1 (stereo not given)
 : 11, 0
- Cc1c(-c2nccn2CCn2cccn2)c(=O)n(-c2ccccc2)n1C
 : 1, -3
- O=S(=O)(c1ccccc1NCc1cn2c(n1)CCCC2)C(F)F
 : 11, 9
- CC1CCc2ccccc2N1CCNC(=O)Nc1ccc(C#N)cc1 (stereo not given)
 : 1, 0
- Cc1ccccc1C(=O)N1CCC2(CCCN(Cc3ccc(F)cc3)C2)C1 (stereo not given)
 : 16, 14
- COc1ccc(OC)c(-c2cnc(-c3ccc(CNC(=O)C4=Cc5cc(Cl)ccc5OC4)cc3)[nH]2)c1
 : -5, -7
- Cc1ccccc1C(=O)N1CCC2(CC1)OCC(C(=O)NC(C)c1ccccc1)N2C(=O)c1cccc(F)c1 (stereo not given)
 : 16, 27

Continued, starting with the last 2 of the part before.
The line under a structure holds: NPYLR7 agonist, NPYLR7 agonist max-min
- COc1ccc(OC)c(-c2cnc(-c3ccc(CNC(=O)C4=Cc5cc(Cl)ccc5OC4)cc3)[nH]2)c1
 : -5, -7
- Cc1ccccc1C(=O)N1CCC2(CC1)OCC(C(=O)NC(C)c1ccccc1)N2C(=O)c1cccc(F)c1 (stereo not given)
 : 16, 27
- COc1ccc(CCNC(=O)c2ccccc2N2CCC(NC(=O)c3cccc(Br)c3)CC2)cc1OC
 : -1, 0
- CSCCc1ccc(NC(=O)N2CC(C)OC(C)C2)cc1 (stereo not given)
 : -6, -8
- COc1ccc(CN2C[C@H](Sc3ccccn3)C[C@H]2C(=O)Nc2ccc3sc(C)nc3c2)c(OC)c1
 : 41, 29
- CN(CC(=O)N1CCCC1)c1nc(-c2ccccc2)nc2ccccc12
 : -5, -3
- COc1ccc(CCNC(=O)c2cc(C3CC3)n(C3CCS(=O)(=O)C3)n2)cc1 (stereo not given)
 : -1, -3
- CCc1nc2ccc(C(=O)N3CCNC(=O)C3)cn2c1N(C)CCC(C)C
 : -6, -9
- CCONC(=O)c1cc(-c2ccccc2)nc2c1c(C)nn2C
 : 1, -8
- NC(=O)C1CCN(c2ccc(S(=O)(=O)C(F)(F)F)cc2)C1 (stereo not given)
 : 2, -1
- C=c1cc(C)n(CC(=O)Nc2c(C)cccc2C)c(=O)c1=C1N=C(c2ccc(F)cc2)NO1
 : 1, -1
- COc1ccc(-n2ccnc2CN2CCCC(CO)(Cc3cccc(OC)c3)C2)cc1 (stereo not given)
 : 16, 14
- Cc1ccc(C(=O)Nc2ccc(Cl)cn2)cc1S(=O)(=O)N1CCOCC1
 : -17, -22
- CCCc1cc(N2CCN(C3CCOCC3)CC2)nc(C)n1
 : 0, 2
- CCOc1ccccc1N(CC(=O)NC(C)CC)S(=O)(=O)c1ccc(Cl)cc1 (stereo not given)
 : 2, -3
- COc1ccc2oc(=O)c(C(=O)Nc3c(C)n(C)n(-c4ccccc4)c3=O)cc2c1
 : -8, 0
- O=C(Cc1ccc(Cl)cc1)NCc1cc(-c2cc3ccccc3o2)on1
 : 2, 0
- O=C(Nc1ccc(C(F)(F)F)cc1)N1CCN(c2nc(-c3cccs3)nc3cc(Cl)ccc23)CC1
 : 20, 17
- Cc1nc(-c2coc3cc(OCC(=O)O)ccc3c2=O)cs1
 : 6, 4
- COCCn1cc(C(=O)N2CCN(Cc3ccc(C)cc3)CC2)c2nn(-c3ccccc3)c(=O)c-2c1
 : -3, -7
- CCNC(=O)C1(C)CCN(Cc2ccc(C(=O)OCC)o2)C1 (stereo not given)
 : 3, 4
- Cc1ccc(S(=O)(=O)N2CCN(c3nc(C4CC4)nc4ccccc34)CC2)cc1
 : 32, 28
- C=CCN1C(=O)C(=O)c2cc(Br)ccc21
 : 6, 0
- O=C1NCc2ccc(NS(=O)(=O)c3ccc(Cl)nc3)cc21
 : 4, 301
- c1ccc(CN2CCN(c3ncnc4scc(-c5ccccc5)c34)CC2)cc1
 : -8, -11

From PubChem BioAssay

A portion of the library; rates above refer to the full screens.
